VDR inhibitor = inhibitors of human vitamin D receptor | P11473 | VDR-SRC2-3 peptide fluorescence polarization, 2 h | Potency, µM, for inactives: max response, negative = inhibition, hits mostly inhibitors | 400,000 compounds, 0.93% hits; active = well fitted inhibition curve with a large enough effect; inconclusive = small, poorly fitted or top-dose-only effect, or another doubt; inactive = no such curve, though single readings can be large or run the other way; also: series mostly up to about 120 µM
Target sequence (P11473 whole entry, looked up): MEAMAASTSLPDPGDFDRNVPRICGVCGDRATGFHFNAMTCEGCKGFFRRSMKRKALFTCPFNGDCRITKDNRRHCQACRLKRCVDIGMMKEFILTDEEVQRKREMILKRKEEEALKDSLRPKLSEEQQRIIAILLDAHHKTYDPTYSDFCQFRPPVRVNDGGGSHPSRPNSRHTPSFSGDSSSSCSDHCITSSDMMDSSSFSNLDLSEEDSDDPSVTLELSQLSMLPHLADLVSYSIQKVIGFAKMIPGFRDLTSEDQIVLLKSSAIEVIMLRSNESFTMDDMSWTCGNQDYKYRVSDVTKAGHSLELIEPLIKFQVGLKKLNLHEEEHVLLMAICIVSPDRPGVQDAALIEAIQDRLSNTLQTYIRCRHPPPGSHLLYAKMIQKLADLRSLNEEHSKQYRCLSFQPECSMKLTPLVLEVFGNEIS
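VDR–SRC2-3 interaction, FP format. Cmpds 23 nl via pintool, brief spin, 2 h ambient incubation.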
* marks the source's active call; other numbers are inactive results; ? = inconclusive; & = joins results of further samples. % is scaled to controls: 0 for no effect and ±100 for the full control effect; potency is read from the fitted curve at half-maximal effect. Not all compounds are listed; the hit share may differ from the screen's.

SMILES | VDR inhibitor
COC(CNC(=O)CN1C(=O)COc2ccc(S(=O)(=O)N3CCOCC3)cc21)OC | 8%
O=C1OCCN1C(=O)[C@H]1[C@H](c2ccccc2)C(c2cccc(Cl)c2)=NN1c1ccc(Br)cc1 | -15%&9%
CC(=O)c1ccc(OCc2cc(C(=O)N(C)C(C)c3ccon3)no2)cc1 (configuration not stated) | -21%
CCc1ccccc1NC(=O)CN(C)C(=O)COC(=O)c1cccnc1Cl | 2%
Cc1cccc(C(=O)Nc2cccc(C(=O)N/N=C/c3ccc4c(c3)OCO4)c2)c1 | -2%
CCOc1ccc(S(=O)(=O)N2CCN(C(=O)c3cc(C4CC4)nn3-c3ccccc3)CC2)cc1 | -10%
O=C(COC(=O)C12CC3CC(CC(Br)(C3)C1)C2)NCc1ccco1 | -5%
O=C(CCNC(=O)N1CC(=O)Nc2ccccc21)Nc1ccc(Br)cc1F | -2%
CC(=O)N/C(N)=N/c1nc2cc(C)ccc2o1 | 15%
CC(=O)c1ccc(NC(=O)CCc2nc(-c3ccc(C)cc3)no2)cc1 | 8%
COc1ccc(N(C)C(=O)C2CCCN2S(=O)(=O)c2cccc3nsnc23)cc1 (configuration not stated) | -25%
O=C(Cn1cnc2ccccc2c1=O)NCC(=O)N1CCN(Cc2ccc3c(c2)OCO3)CC1 | -3%
Cc1cc(C)c[n+](C2=C([O-])c3ccccc3C(=O)/C2=N\S(=O)(=O)c2cccs2)c1 | -8%
N#CCC(=O)Nc1ccc(C(=O)OCC(=O)N(Cc2ccccc2)C2CCS(=O)(=O)C2)cc1 (configuration not stated) | -3%
O=S(=O)(NCc1ccccn1)c1cccc2nsnc12 | 1%
N#C/C(=C\c1ccc(O)c(O)c1)C(=O)N1CCCC1 | -12%
O=C(COC(=O)C1CC2C=CC1C2)Nc1ccccc1F (configuration not stated) | 5%
CCOC(=O)c1c(C)[nH]c(C(=O)CSc2ccc(Cl)cc2)c1C | -19%
Cc1noc(/C=C/N(C)C)c1S(=O)(=O)N1CCCC(C(=O)N2CCCCC2)C1 (configuration not stated) | -1%
CCOc1ccc(CNC(=S)N/N=C/c2ccc(OC)c(OC)c2)cc1 | -17%
COc1ccc(NC(=O)C2CCCN(S(=O)(=O)c3cccnc3)C2)cc1OC (configuration not stated) | 1%
O=C(COC(=O)Cc1ccc(Cl)cc1)Nc1ccccc1-c1ccccc1 | -6%
O=C(CSC1=NCCN1)Nc1ccccc1[N+](=O)[O-] | -4%
COc1ccc(N2C(=O)C(Cl)=C(N3CCCC(C)C3)C2=O)cc1 (configuration not stated) | -14%
Clc1cccc2c3c([nH]c12)CCNC3 | ?
CCNC(=S)N1C2CCC1CC(NC(=O)Nc1ccc(C(=O)OCC)cc1)C2 (configuration not stated) | 6%
COc1ccc(N(C(=O)c2ccco2)C(C(=O)NC2CCCC2)c2ccc(N(C)C)cc2)cc1 (configuration not stated) | 15%
O=C(CSc1nnc2[nH]c(=O)cc(-c3ccccc3)n12)Nc1ccc(F)cc1F | -5%
COc1ccc(-n2nnnc2SCC(=O)Nc2ccc3c(c2)OCCO3)cc1OC | -4%
CC(C)C[C@H](NC(=O)N1CC(=O)Nc2ccccc21)C(=O)N1CCC[C@H]1C(=O)O | -11%

Reformatted: results already given
| SMILES | VDR inhibitor |
| --- | --- |
| O=C(COC(=O)C12CC3CC(CC(Br)(C3)C1)C2)NCc1ccco1 | -5% |
| O=C(CCNC(=O)N1CC(=O)Nc2ccccc21)Nc1ccc(Br)cc1F | -2% |
| CC(=O)N/C(N)=N/c1nc2cc(C)ccc2o1 | 15% |
| CC(=O)c1ccc(NC(=O)CCc2nc(-c3ccc(C)cc3)no2)cc1 | 8% |
| COc1ccc(N(C)C(=O)C2CCCN2S(=O)(=O)c2cccc3nsnc23)cc1 (configuration not stated) | -25% |
| O=C(Cn1cnc2ccccc2c1=O)NCC(=O)N1CCN(Cc2ccc3c(c2)OCO3)CC1 | -3% |
| Cc1cc(C)c[n+](C2=C([O-])c3ccccc3C(=O)/C2=N\S(=O)(=O)c2cccs2)c1 | -8% |

Later entries.
SMILES | VDR inhibitor
NS(=O)(=O)c1ccc(CCNC(=O)Cc2ccc(Cl)cc2)cc1 | 9%
O=C(CCn1nnc2ccccc21)Nc1nnc(COc2ccc(F)cc2)s1 | -6%
COc1ccc(-c2c[n+]3c(n2-c2ccc(C)cc2)CCCCC3)cc1 | 8%
Cc1ccc(CNCCCSc2nc(C)cc(C)n2)cc1 | -9%
COCCNC(=S)N/N=C(\C)c1ccc2cc(OC)ccc2c1 | 6%
Clc1ccccc1CSc1nnc(-c2ccco2)c(-c2ccco2)n1 | ?
Cc1ccccc1C(=O)OCC(=O)NCc1ccco1 | -9%
CC(=O)CC(c1ccccc1)S(=O)(=O)c1ccc(C)cc1 (configuration not stated) | -15%
COc1ccc(OC)c(NC(=O)CCN2C(=O)c3ccccc3C2=O)c1 | 21%
CN(C)C(=O)c1cc(S(=O)(=O)N(C)C)c(Cl)cc1N1CCCC1 | 0%
Cc1cc(C)cc(OCC(=O)OC(C)C(=O)Nc2ccc(Cl)cn2)c1 (configuration not stated) | 2%
C#CCNc1nc(CC)nc2c1nnn2Cc1ccccc1F | 1%
CC1Cc2ccccc2N1S(=O)(=O)c1cccc(C(=O)NC2CC2)c1 (configuration not stated) | -2%
CCc1ccc2c(CN3CCN(S(=O)(=O)c4cccs4)CC3)cc(=O)oc2c1 | -4%
Cc1ccc(-n2ncc3c(SCC(=O)NNC(=O)c4ccco4)ncnc32)cc1 | 1%
CCSC1=C(C#N)C(c2cccc(OC)c2)CC(=O)N1 (configuration not stated) | 1%
COc1ccccc1N1C[C@@H]2C[C@@H](c3ccco3)N3CCC[C@@]23C1=O | 21%
COc1ccc(-c2nc3ccccc3n2OCC(=O)O)cc1 | 15%
CC(C)(C)c1cnnn1-c1ccc(/C=N/Nc2ccc([N+](=O)[O-])cc2)cc1 | -19%
CS(=O)(=O)NCC(c1cccnc1)N1CCN(c2ccc(F)cc2)CC1 (configuration not stated) | -5%
COc1ccc2nc(/C(C#N)=C\c3ccc(C(=O)O)cc3)[nH]c2c1 | 4%
CCOc1ccc(-c2nc3n(c(=O)c2C#N)CCS3)cc1 | -2%
CCN(CC)C(=O)/C(=C/c1ccc2c(c1)OCO2)NC(=O)c1ccc(Br)cc1 | 4%
COCCCNC(=O)CNC(=O)c1cn(-c2ccccc2OC)c(=O)c2ccccc12 | -2%
COc1ccccc1N1CCN(C(=O)c2cccs2)CC1 | 1%
CCC(=O)Nc1c(C)ccc2nsnc12 | -11%
COc1ccc(-c2cn(CCCOCc3ccccc3)nn2)cc1 | -3%
COc1ccc(CCNC(=O)C(=O)Nc2ccc3c(c2)OCO3)cc1OC | 3%
O=C(CCCN1C(=O)/C(=C\c2ccccc2)SC1=S)Nc1ccc(O)cc1C(=O)O | -22%
O=C(CCCCCn1c(=S)[nH]c2ccc(N3CCOCC3)cc2c1=O)NCc1cccc(Cl)c1 | -11%
CN(C)S(=O)(=O)c1ccc(C(=O)OCC(=O)Nc2sc3c(c2C#N)CCCCC3)cc1 | 5%
O=C(CCSc1ccccc1)NCCSCc1ccco1 | 7%
CCOc1ccccc1N(CC(=O)NCCSc1ccccn1)S(=O)(=O)c1ccccc1 | -21%
O=C(CSc1nc2sc3c(c2c(=O)n1-c1ccccc1)CCCC3)N/N=C/c1ccccc1C(=O)O | 13%
C/C(CC(=O)NC12CC3CC(CC(C3)C1)C2)=N\NC(=O)c1ccc(C)cc1 | 24%
CCc1nnc(NS(=O)(=O)c2ccc(NC(=O)/C=C/c3ccc(F)cc3)cc2)s1 | 16%
CCOC(=O)c1ccc(NC(=S)N(CCN(C)C)C(C)c2ccncc2)cc1 (configuration not stated) | -3%
CC1(Cn2ccnn2)[C@H](C(=O)O)N2C(=O)C[C@H]2S1(=O)=O (some centres not stated) | 8%
O=C(COC(=O)c1cc(S(=O)(=O)N2CCOCC2)c(Cl)cc1Cl)NCc1ccco1 | -9%
O=C(c1ccccc1)N1N=C(c2ccccc2)CC1(O)C(F)(F)F (configuration not stated) | -16%
N#CC1=C(N)Oc2n[nH]c(-c3ccccc3)c2C1c1cccc(OC(=O)N2CCOCC2)c1 (configuration not stated) | -3%
CCOC(=O)c1ccccc1NC(=O)C1CC(=O)N(C(C)(C)C)C1 (configuration not stated) | 6%
Cc1nnc(NC(=O)CSc2nnc(C)n2Cc2ccccc2)s1 | 6%
c1ccc2c(N3CCOCC3)nc(-c3ccncc3)nc2c1 | -3%
O=C(/C=C/c1cccc(F)c1)OCC(=O)c1ccc[nH]1 | 1%
CCc1ccc(Nc2nnc(SCC(=O)Nc3sccc3C(N)=O)s2)cc1 | -5%
COc1ccc(-n2nc3c(c2NC(=O)CCCl)CSC3)cc1 | 6%
COC(=O)/C(=C1/OC(=O)C(c2ccccc2)=C1O)c1ccccc1 | -15%
Cc1ccn(CC(=O)NC2CC(C)(C)Cc3c2cnn3-c2ccc(F)cc2)n1 (configuration not stated) | -7%
CCCCc1ccc(S(=O)(=O)N/N=C(/C)c2ccncc2)cc1 | ?
O=C(Nc1ccccc1N1CCOCC1)c1ccc2nc[nH]c2c1 | -2%
O=C(O)c1cc(C(=O)O)cc(-c2ccc(/C=c3/sc4nc5ccccc5n4c3=O)o2)c1 | 8%
CC(=O)CCSc1nnc(-c2cccc(S(=O)(=O)N3CCOCC3)c2)o1 | 0%
COC(=O)c1ccc(C(=O)OC)c(NC(=S)N2CCN(c3cc(Cl)ccc3C)CC2)c1 | -18%
COc1ccc(NC(=O)CN(c2cc(C)cc(C)c2)S(=O)(=O)c2c(C)n[nH]c2C)cc1 | 89µM*
CCN(CC)CCNC(=O)C1(c2ccccc2)CCCCC1 | -1%
CCCCC1=CC2=C(OC(C)=O)C(=O)C(C)(OC(=O)c3ccc(Cl)nc3)C(=O)C2=CO1 (configuration not stated) | ?
CC(C)(C)c1ccc(-c2nnc(-c3ccccc3NC(=O)c3ccc(F)cc3F)o2)cc1 | -5%
CCN(C(=O)Cn1c(=O)oc2ccccc21)c1ccc(C)c(C)c1 | 3%
O=C(OCc1ccc(Cl)cc1Cl)c1ccncc1 | 2%
More structures follow.
SMILES | VDR inhibitor
Cc1ccc(Cl)cc1NC(=O)C1CCCCC1C(=O)O (configuration not stated) | 2%
Cc1cc(/C=N/n2cnnc2)c(C)n1-c1ccc(OCc2ccccc2F)cc1 | -8%
CC(C)NC(=O)CN1C(=O)c2cccnc2Sc2ccccc21 | -3%
COC(=O)c1cccc(NC(=O)C2CCCN2C(=O)c2cccs2)c1 (configuration not stated) | 12%
C#CCN1C(=O)S/C(=C\c2ccc(N3CCOCC3)cc2C)C1=O | 0%
COC(=O)C1=C(C)N(c2ccc(OC)cc2)C(C)=C(C(=O)OC)C1c1ccc(OC)cc1 | -12%
CCCCn1c(N)c(NCCC)c(=O)[nH]c1=O | -10%
CC(=O)Oc1cc(C(=O)OCC(=O)N2CCc3ccccc3C2)cc(OC(C)=O)c1OC(C)=O | ?
CCOC(=O)CNC(=S)N(Cc1ccco1)Cc1ccccc1Cl | -15%
Cc1ccc(-c2c[n+](Cc3ccc(Cl)cc3)c3n2CCC3)cc1 | -5%
C/C(=N/NS(=O)(=O)c1ccc(C)c(C)c1)c1c[nH]c2ccccc12 | -24%
CCCOc1nc2c(c(=O)n(C)c(=O)n2C)n1C | ?
COc1ccc(/C=C(\NC(=O)c2ccccc2)C(=O)NCCC(=O)O)cc1 | -12%
Cc1ccc(NC(=O)c2cc(S(=O)(=O)N3CCc4ccccc43)ccc2F)cc1Cl | 13%
Cc1ccc(CN2CCN(CC(=O)NC(C)c3ccc4c(c3)OCCO4)C2=O)cc1 (configuration not stated) | -16%
CCN(CC)S(=O)(=O)c1ccc2oc(C(=O)NCCCN3CCOCC3)c(C)c2c1 | -2%
CCOC(=O)N1CCC(NC(=O)c2cc(C(=O)Nc3cccc(C(F)(F)F)c3)ccc2CO)CC1 | -8%
CCOC(=O)C1=CN(Cc2cccc(Br)c2)S(=O)(=O)NC1C (configuration not stated) | 2%
Cc1onc(-c2ccccc2)c1C(=O)Nc1ccccc1C#N | -16%&1%
CC(C)CNC(=O)C(=O)NCCC1CCCCN1S(=O)(=O)c1cccs1 (configuration not stated) | -2%
CCCCCCCCCC(=O)O[C@H](CC(=O)O)C[N+](C)(C)C | -3%
COc1ccc(/C=C/C(=O)Nc2nc(-c3cccs3)ns2)cc1 | 10%
CC1CN(C(=O)/C(=C/c2ccco2)NC(=O)c2ccccc2)CC(C)O1 (configuration not stated) | -15%
CC1CCN(N=Nc2nc3c([nH]2)c(=O)n(C)c(=O)n3C)CC1 | -14%
COc1ccc(CS(=O)(=O)c2ncn[nH]2)cc1 | -6%
O=[N+]([O-])c1ccccc1OCCOCCOc1cccc2cccnc12 | -19%
CCOC(=O)C1(Cc2ccccc2)CCN(Cc2cccc(OC)c2O)CC1 | -2%
Cc1ccc2c(c1)C(c1ccccc1)N(C(=O)c1ccc(S(=O)(=O)N3CCOCC3)cc1)CC(=O)N2 (configuration not stated) | ?
O=C(Nc1ccc(F)cc1)C(=O)c1c(O)[nH]c2ccc([N+](=O)[O-])cc12 | -20%
CCC(CO)Oc1cc(NC(=O)c2ccccc2[N+](=O)[O-])c2ncn(C(C)C)c2c1 (configuration not stated) | -18%
CCn1c(CC(=O)Nc2ccc(F)cc2)nnc1SCC(=O)NC1CCCC1 | -6%
CCCCCOCC1CC(C/C(C)=N/NC(N)=S)C(=O)O1 (configuration not stated) | -27%

In the list so far, these have a tert-butyl group:
SMILES | VDR inhibitor
CC(C)(C)c1cnnn1-c1ccc(/C=N/Nc2ccc([N+](=O)[O-])cc2)cc1 | -19%
CCOC(=O)c1ccccc1NC(=O)C1CC(=O)N(C(C)(C)C)C1 (configuration not stated) | 6%
CC(C)(C)c1ccc(-c2nnc(-c3ccccc3NC(=O)c3ccc(F)cc3F)o2)cc1 | -5%
